Bioassay records deposited in PubChem by National Center for Advancing Translational Sciences (NCATS).
Cruzain Triton – qHTS Assay for Promiscuous and Specific Inhibitors of Cruzain (with detergent); Cruzipain (Trypanosoma cruzi), P25779; purified cruzain, Z-FR-AMC fluorescence, 0.01% Triton; Potency, µM, without a hit: max response, negative = inhibition, hits mostly inhibitors; 0.43% of 200,000 active; AID 1478, 2009;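 further: plate controls were neutral wells for no effect and buffer without enzyme for full effect; nearly all actives have a fitted effect of over 40% in size; top concentration of the series not given in the record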
Target sequence (P25779 123-467 limits assumed): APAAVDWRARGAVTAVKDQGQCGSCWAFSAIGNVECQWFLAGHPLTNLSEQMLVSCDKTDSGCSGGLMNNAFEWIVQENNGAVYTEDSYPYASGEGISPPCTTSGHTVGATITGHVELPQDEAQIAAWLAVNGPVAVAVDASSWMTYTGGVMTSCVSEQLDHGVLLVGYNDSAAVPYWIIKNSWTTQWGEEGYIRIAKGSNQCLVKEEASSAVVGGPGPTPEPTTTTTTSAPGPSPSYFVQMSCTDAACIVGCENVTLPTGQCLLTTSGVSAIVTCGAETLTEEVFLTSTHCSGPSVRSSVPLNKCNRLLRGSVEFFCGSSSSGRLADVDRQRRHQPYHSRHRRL
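Z-FR-AMC hydrolysis (2 uM substrate) by cruzain (1.5 nM) monitored kinetically at ex 360/em 450 nm after 15 min room-temperature compound exposure; 0.01% Triton X-100, pH 5.5, 5 mM DTT.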
RE007 growth inh – qHTS Assay for Inhibitors of the HIV-1 protein Vpr. Potency, µM (doses to about 92.2 µM), inactives show at the highest dose activity change, negative = less growth. 0.21% of 360,000 active. AID 651644, 2012. S. pombe RE007 Vpr strain, BacTiter-Glo ATP luminescence, 24 h; control for the full effect not named in the record; active = well fitted falling curve with a large enough effect; inconclusive = small, poorly fitted or top-dose-only effect; inactive = no such curve, though single readings can be large or run the other way;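 further: on the % scale 0 is the no-effect control and ±100 the full control effect; nearly all actives have a fitted effect of over 50% in size; the assay follows cell death caused by Vpr and the record does not say whether a fall means rescue or toxicity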
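Fission yeast strain RE007, carrying one chromosomally integrated HIV-1 vpr copy, was seeded at OD 0.01 in PMG+AL medium with 23 nL pinned compound. After 24 h at 30 °C and 99% humidity, viability was read by BacTiter-Glo luminescence.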
StopGo reporter – High Throughput Screening for Foot and Mouth Disease Virus Antivirals. Potency, µM (highest dose often 57.9 µM), for inactives: top-dose signal change, negative = less light. human cells with a luciferase reporter of 2A StopGo recoding; control for the full effect not named in the record. 1.2% of 410,000 active; active = well fitted falling curve with a large enough effect; inconclusive = small, poorly fitted or top-dose-only effect; inactive = no such curve, though single readings can be large or run the other way; tested in HEK293T cells; further: on the % scale 0 is the no-effect control and ±100 the full control effect; nearly all actives have a fitted effect of over 45% in size; luciferase light after 4 h
Marburg entry inh – qHTS for inhibitors of binding or entry into cells for Marburg Virus; Marburg virus pseudotyped entry inhibition, cell reporter; control for the full effect not named in the record; about a third of the inactives were read at about 46 µM; Potency, µM (series often up to 37.8 µM), for the others: top-dose activity change, negative = inhibition, hits mostly inhibitors; 1.8% of 300,000 active; AID 540276, 2011; active = well fitted inhibition curve with a large enough effect; inconclusive = small, poorly fitted or top-dose-only effect, or effect the other way; inactive = flat fitted curve, though single readings scatter; tested in HEK293 cells; about a fifth of its hits are not listed in these tables; further: on the % scale 0 is the no-effect control and ±100 the full control effect; luciferase read-out
Cruzain noTriton – qHTS Assay for Promiscuous and Specific Inhibitors of Cruzain (without detergent); purified cruzain, Z-FR-AMC fluorescence, no detergent; Potency, µM, without a hit: max response, negative = inhibition, usual class: inhibitors; 2.3% of 200,000 active; AID 1476, 2009;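 further: plate controls were enzyme without inhibitor for no effect and buffer without enzyme for full effect; nearly all actives have a fitted effect of over 40% in size; top concentration of the series not given in the record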
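Detergent-free condition (0.00005% Triton X-100) in acetate buffer pH 5.5 with DTT. 1.5 nM enzyme and compound were pre-mixed 15 min, then 2 uM Z-FR-AMC substrate added; reaction progress from fluorescence change between first and third reads (60 s).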
NS1 inh – qHTS Assay for Inhibitors of Influenza NS1 Protein Function; S. cerevisiae slowed by influenza A NS1, growth recovery by OD600; Potency, µM (titrated, usually from 46.1 µM), for the others: at the highest dose activity, positive = more growth; 0.4% of 270,000 active; active means well fitted rising curve with a large enough effect; inconclusive means small, poorly fitted or top-dose-only effect; inactive means no such curve, though single readings can be large or run the other way; further: nearly all actives have a fitted effect of over 50% in size
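Growth recovery, yeast-based: influenza A NS1 expressed in S. cerevisiae causes slow growth, and suppressors are detected by OD600. The parent strain without NS1 is used as positive control.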
LASV entry inh – qHTS for Inhibitors of binding or entry into cells for Lassa Virus; Lassa virus pseudotype entry inhibition, cell reporter; control for the full effect not named in the record; Potency, µM (series often up to 37.9 µM), without a hit: top-dose activity change, negative = inhibition, actives largely listed as inhibitors; 1.2% of 300,000 active; AID 540256, 2011; active means well fitted inhibition curve with a large enough effect; inconclusive means small, poorly fitted or top-dose-only effect, or effect the other way; inactive means flat fitted curve, though single readings scatter; tested in HEK293 cells; further: on the % scale 0 is the no-effect control and ±100 the full control effect; nearly all actives have a fitted effect of over 50% in size; luciferase read-out
SARS PLpro yeast – qHTS of Yeast-based Assay for SARS-CoV PLP. S. cerevisiae expressing SARS-CoV PLpro, growth rescue; control for the full effect not named in the record. 0.19% of 330,000 active. Potency, µM (titrated, usually from 32.9 µM), for the others: top-dose activity, positive = growth rescue. AID 485353, 2010; active means well fitted rising curve with a large enough effect; inconclusive means small, poorly fitted or top-dose-only effect; inactive means no such curve, though single readings can be large or run the other way; further: 0% is about no effect; nearly all actives have a fitted effect of over 55% in size; growth read by luminescence after 48 h
Numbers without * were called inactive; [ ] = another dose, or the depositor's remark. Unless noted, the call rests on the fitted dose curve; in most records, active means well fitted curve in the direction sought with a large enough effect; inconclusive means small, poorly fitted or top-dose-only effect, or another doubt; inactive means no such curve, though single readings can be large; an effect the other way counts as inactive or inconclusive. Potency means the concentration at half of the fitted maximal effect. This is a random part of the collection; about 4.6% have a hit in one of these screens.

How did NC(=O)c1nc(Nc2ccccc2)sc1NC(=O)c1c(F)cccc1F do in these assays?
Cruzain Triton: -2.6%; StopGo reporter: 8%; Cruzain noTriton: -17%; LASV entry inh: 18%[46.1 µM]

How did CCOC(=O)N1CCN(C(=O)CN(C)S(=O)(=O)c2ccc(OCC)cc2)CC1 do in these assays?
RE007 growth inh: 11%; StopGo reporter: -9%; Marburg entry inh: inconclusive; NS1 inh: 12%; LASV entry inh: 10%; SARS PLpro yeast: 1%

Results for O=C1CN=C(c2ccccc2)c2ccccc2N1Cc1ccc(C(F)(F)F)cc1 ?
Cruzain Triton: -12%; RE007 growth inh: -2%; StopGo reporter: inconclusive; Marburg entry inh: inconclusive; Cruzain noTriton: 8%; NS1 inh: 15%; LASV entry inh: -1%; SARS PLpro yeast: -5%

Results for COc1ccccc1C(=O)NCC(=O)OC(C)C(=O)NC(=O)NC1CCCCC1 (stereo not given) ?
Cruzain Triton: 8.9µM*; RE007 growth inh: -11%; StopGo reporter: -16%; Marburg entry inh: 15%; Cruzain noTriton: 10µM*; NS1 inh: 3%; LASV entry inh: -7%; SARS PLpro yeast: inconclusive

Results for N#CC1=C(N)Oc2cc(O)ccc2C1C1CCCCC1 (stereo not given) ?
Cruzain Triton: -8.1%; RE007 growth inh: 11%; StopGo reporter: -23%; Marburg entry inh: inconclusive; Cruzain noTriton: -6%; NS1 inh: -5%; LASV entry inh: -14%; SARS PLpro yeast: -16%

How did Cc1c(CC(=O)N2CCC(C(N)=O)CC2)c(=O)oc2cc3c(cc12)CCC1(CCCCC1)O3 do in these assays?
RE007 growth inh: -14%; StopGo reporter: -23%; NS1 inh: -19%; SARS PLpro yeast: 2%

How did COc1ccc(/C=C(\C#N)C(=O)Nc2cc(S(=O)(=O)N3CCCCC3)ccc2N2CCCCC2)cc1 do in these assays?
Cruzain Triton: -2.2%; RE007 growth inh: -1%; StopGo reporter: -1%; Marburg entry inh: -8%; Cruzain noTriton: 4µM*; NS1 inh: inconclusive; LASV entry inh: 6%; SARS PLpro yeast: -11%

Results for Cc1cccc(C2c3[nH]c4ccccc4c3CCN2C(=O)c2noc3c2CCCC3)n1 (stereo not given) ?
RE007 growth inh: 5%; StopGo reporter: 15%; NS1 inh: 2%; SARS PLpro yeast: -4%

What do the screens show for `O=C(COC(=O)C1CCN(S(=O)(=O)c2cccs2)CC1)Nc1ccc(F)cc1F`?
RE007 growth inh: -5%; StopGo reporter: -4%; Marburg entry inh: -1%[46.1 µM]; NS1 inh: inconclusive; LASV entry inh: -14%; SARS PLpro yeast: 1%

What do the screens show for `COCCCNC(=S)N1CCC(C(=O)c2ccc3c(c2)OCCO3)CC1`?
RE007 growth inh: -4%; StopGo reporter: -22%; Marburg entry inh: -19%[46.1 µM]; LASV entry inh: -7%[46.1 µM]; SARS PLpro yeast: 1%

Results for O=C(NCc1cccnc1)C1CCCN(S(=O)(=O)c2cccc3nsnc23)C1 (stereo not given) ?
Cruzain Triton: -4.3%; RE007 growth inh: -6%; StopGo reporter: -22%; Marburg entry inh: -3%; Cruzain noTriton: 0%; NS1 inh: -2%; LASV entry inh: 12%; SARS PLpro yeast: 22%

What do the screens show for `CN(CC(=O)Nc1ccc(N2CCOCC2)cc1)C(=O)CCNC(=O)c1ccc(Br)cc1`?
RE007 growth inh: -8%; StopGo reporter: 3%; Marburg entry inh: 0%; LASV entry inh: 8%; SARS PLpro yeast: -6%

What do the screens show for `NC(=O)c1nn(-c2ccc(Cl)cc2Cl)c(=O)cc1O`?
RE007 growth inh: 3%; StopGo reporter: -14%; Marburg entry inh: 27%[46.1 µM]; LASV entry inh: -1%; SARS PLpro yeast: 6%

How did CC(=O)c1ccc(Nc2c3c(nc4ccccc24)CCCC3)cc1 do in these assays?
RE007 growth inh: -7%; StopGo reporter: inconclusive; NS1 inh: -8%; SARS PLpro yeast: 0%

Results for COc1ccc(-c2nc(CNC(=O)Nc3ccccc3)c(C)o2)c(OC)c1 ?
Cruzain Triton: -4.8%; StopGo reporter: 19%; Cruzain noTriton: 1%; LASV entry inh: -24%[46.1 µM]

Results for Cc1cccc(OCC(=O)N(Cc2cccs2)c2ccc(Cl)cc2)c1C ?
Cruzain Triton: -8.2%; StopGo reporter: 0%; Marburg entry inh: inconclusive; Cruzain noTriton: -4%; LASV entry inh: inconclusive

Results for COc1ccccc1-n1c(-c2cn(C)nc2C)n[nH]c1=S ?
Cruzain Triton: 0.1%; RE007 growth inh: -18%; StopGo reporter: -5%; Marburg entry inh: inconclusive; Cruzain noTriton: 6%; NS1 inh: 13%; LASV entry inh: 8%; SARS PLpro yeast: -1%

How did S=C(Nc1ccccn1)Nc1ccccc1Cl do in these assays?
RE007 growth inh: -3%; StopGo reporter: 41%[activator]; Marburg entry inh: 9%[46.1 µM]; NS1 inh: -3%; LASV entry inh: -12%; SARS PLpro yeast: 1%

Results for CCOc1ccc(/C=N/n2c(C3CCCCC3)n[nH]c2=S)cc1 ?
RE007 growth inh: 4%; StopGo reporter: -15%; NS1 inh: -1%; SARS PLpro yeast: -2%

How did CCc1ccc(NC(=O)CNC(=O)c2cn(-c3ccccc3OC)c(=O)c3ccccc23)cc1 do in these assays?
Cruzain Triton: -3.8%; RE007 growth inh: -20%; StopGo reporter: -9%; Marburg entry inh: inconclusive; Cruzain noTriton: 27%; NS1 inh: 11µM*; LASV entry inh: -26%; SARS PLpro yeast: 26%

What do the screens show for `O=C(C1CC1)N1CCN(c2ccc(F)cc2)CC1`?
RE007 growth inh: -7%; StopGo reporter: 3%; Marburg entry inh: 4%; NS1 inh: -1%; LASV entry inh: 14%; SARS PLpro yeast: 20%

How did Cc1nn(C)c2ncc(C(N)=O)c(Oc3ccc(Cl)cc3)c12 do in these assays?
RE007 growth inh: 21%; StopGo reporter: 0%; Marburg entry inh: 0%; NS1 inh: 0%; LASV entry inh: inconclusive; SARS PLpro yeast: 0%

Results for Cc1ccnc(SCC(=O)N2CCN(c3ccccc3)CC2)n1 ?
Cruzain Triton: 0.2%; RE007 growth inh: 1%; StopGo reporter: 2%; Marburg entry inh: 6%; Cruzain noTriton: -5%; NS1 inh: 10%; LASV entry inh: 3%; SARS PLpro yeast: -2%

Results for CC[C@H](C)[C@H](NC(N)=O)C(=O)Nc1ccc(C)cc1 ?
Cruzain Triton: -2.8%; RE007 growth inh: 27%; StopGo reporter: -10%; Marburg entry inh: inconclusive; Cruzain noTriton: -6%; NS1 inh: 4%; LASV entry inh: 1%; SARS PLpro yeast: 20%

How did O=C(N/N=C1\CCCc2ccccc21)c1cccc([N+](=O)[O-])c1 do in these assays?
Cruzain Triton: 1.3%; RE007 growth inh: -2%; Marburg entry inh: 4%; Cruzain noTriton: -15%; NS1 inh: -3%; LASV entry inh: -7%; SARS PLpro yeast: 0%

What do the screens show for `CCOC(=O)C1(CCCc2ccccc2)CCN(C(=O)c2cnc(C)cn2)CC1`?
RE007 growth inh: 24%; StopGo reporter: -17%; Marburg entry inh: -4%[46.1 µM]; NS1 inh: -7%; LASV entry inh: -28%[46.1 µM]; SARS PLpro yeast: 1%

How did CC(=O)Nc1ccccc1OCC(=O)NCCC1=CCCCC1 do in these assays?
RE007 growth inh: 2%; StopGo reporter: -8%; Marburg entry inh: 5%[46.1 µM]; LASV entry inh: 9%[46.1 µM]; SARS PLpro yeast: -1%

What do the screens show for `COC(=O)c1ccccc1NC(=O)C/C(C)=N/NC(=O)CC#N`?
RE007 growth inh: -3%; StopGo reporter: -12%; Marburg entry inh: 8%[46.1 µM]; NS1 inh: 2%; LASV entry inh: 17%; SARS PLpro yeast: 0%

What do the screens show for `O=C(/C=C/c1ccccc1)N1c2ccccc2Sc2ccc(C(F)(F)F)cc21`?
Cruzain Triton: -3.6%; StopGo reporter: -7%; Marburg entry inh: 8%; Cruzain noTriton: inconclusive; NS1 inh: 11%; LASV entry inh: 16%; SARS PLpro yeast: -20%

How did Cc1ccc(-c2nnc(COc3cccc(-n4cnnn4)c3)o2)cc1 do in these assays?
Cruzain Triton: -2.1%; RE007 growth inh: -15%; StopGo reporter: -1%; Marburg entry inh: -11%; Cruzain noTriton: -6%; NS1 inh: -5%; LASV entry inh: 3%; SARS PLpro yeast: 2%

How did CC(=O)Nc1cccc(OCCCNC(=O)c2ccc(F)cc2)c1 do in these assays?
RE007 growth inh: 16%; StopGo reporter: 15%; NS1 inh: -2%; SARS PLpro yeast: 0%

How did O=C(O)c1ccc(Nc2nc3ccccc3nc2NS(=O)(=O)c2cccs2)cc1 do in these assays?
RE007 growth inh: -8%; StopGo reporter: -21%; NS1 inh: 5%; SARS PLpro yeast: 12%

Results for COc1cc(C(O)P(=O)(OCC(C)C)OCC(C)C)cc(OC)c1OC (stereo not given) ?
Cruzain Triton: 6.7%; RE007 growth inh: 9%; StopGo reporter: -13%; Marburg entry inh: -4%; Cruzain noTriton: 23%; NS1 inh: 1%; LASV entry inh: -26%; SARS PLpro yeast: 2%

What do the screens show for `COc1cc(C2=NOC(C(=O)Nc3cccnc3)C2)cc(OC)c1OC` (stereo not given)?
RE007 growth inh: -1%; StopGo reporter: -13%; Marburg entry inh: -16%[46.1 µM]; LASV entry inh: 2%; SARS PLpro yeast: 0%

What do the screens show for `O=C(Nc1ccc(Cl)cc1C(=O)N1CCOCC1)c1cccc([N+](=O)[O-])c1`?
Cruzain Triton: -3.2%; Marburg entry inh: 8%; Cruzain noTriton: -11%; NS1 inh: 11%; LASV entry inh: 14%; SARS PLpro yeast: -17%

How did O=C(Cn1ccc(=O)[nH]c1=O)NCCO do in these assays?
RE007 growth inh: -26%; StopGo reporter: 5%; Marburg entry inh: 24%[46.1 µM]; LASV entry inh: -8%; SARS PLpro yeast: 3%
